# Source: PubChem BioAssay
# Ba CapD inh – inhibitors of Bacillus anthracis CapD enzyme; actives 0.23% (n = 140,000); z-score (concentration not given with the values); purified CapD enzyme, fluorescence intensity read-out; stronger effect = lower value; some hits fall short of the stated cut; AID 492967;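 active means z-score under -4 in either of two replicates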;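 further: stock transfer was 100 nL into about 40 µL; score is relative to mean and spread of the plate; one replicate is shown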
# AID504770 – growth inhibitors of E. coli YBA685 in a screen for V. cholerae RctB (chromosome II replication) inhibitors | E. coli YBA685 rctB-dependent plasmid, OD600 growth, 3 h; stronger effect = lower value | z-score (no concentration beside the values) | actives 0.27% (n = 130,000) | AID 504770;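 active means z-score under -2 on both plates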;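 further: wells of about 30 µL received 100 nL stock; score is relative to mean and SD of the test wells; the first replicate is given; strong numbers were not always called active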
# Numbers without * were called inactive; . = not tested or not shown.
nr	SMILES	Ba CapD inh	AID504770
1	c1ccc(COc2ccc(Oc3cnccn3)cc2)cc1	.	-0.8
2	COC(=O)CS(=O)(=O)c1ccsc1C(=O)Nc1ccc(F)c(F)c1	-0.21	.
3	O=C(c1ccccc1)N1CCN(C(=O)c2cccc(Cl)c2Cl)CC1	-0.09	.
4	Clc1ccc2nc(-c3cccnc3)c(Nc3ccccc3)n2c1	0.01	-0.6
5	CSc1nc(-c2cccnc2)nc(N)c1C#N	-0.69	.
6	Fc1cccc(-c2csc(-c3ccc(-c4csnn4)cc3)n2)c1	0.14	-0.4
7	COc1ccc(-n2c(C)cc(CNS(=O)(=O)c3ccccc3)c2C)cc1	0.35	0.9
8	CN1CCC(NCCO)CC1	.	-0.95
9	Cc1ccc(OC(=O)c2cccc(C(=O)Oc3ccc(C)cn3)n2)nc1	.	-0.1
10	O=C(Nc1ccc(F)cc1)N1CCN2C(=O)c3ccccc3C12c1ccccc1 (centres undefined)	0.3	-1.4
11	CC1(C)CC(=O)C2=C(C1)Nc1ccccc1N(C(=O)C1CC1)C2c1ccco1 (centres undefined)	0.47	-0.3
12	O=C1C2CC=CCC2C(=O)N1Cc1cc(=O)n2ccsc2n1 (centres undefined)	.	-2.5
13	C/C(=N\NC(=O)C(F)(F)F)c1ccccc1O	.	1
14	CC1=C(OC(=O)c2ccccc2)C(C)(C)C(c2ccccc2)OC1=O (centres undefined)	0.21	0.3
15	FC(F)(F)c1cc(-c2ccc3c(c2)OCO3)nc(=S)[nH]1	.	1.4
16	Cc1[nH]n2c(=O)cc(-c3ccccc3)nc2c1-c1ccccc1	3.9	2.1
17	Cn1c(=N)n(CC(=O)c2ccc(-c3ccccc3)cc2)c2ccccc21	.	2.9
18	Cc1ccc(C)n1CCc1ccccc1	.	0.1
19	CCSc1nc2ccccc2c(=O)n1-c1cccc(OC)c1	-0.55	-2.1
20	CCOc1ccc(-n2c(/C=C/c3cc(OC)c(OC)cc3OC)nc3cc(OC)c(OC)cc3c2=O)cc1	0.085	.
21	NC(=S)c1ccsc1	.	0
22	O=C(Nc1cccc(C(F)(F)F)c1)c1cccnc1N1CCCC1	0.69	1.1
23	Nc1c(-c2ccccc2)cnc2nc(SCCC(F)=C(F)F)nn12	0.53	.
24	Cc1nnc(C)n1/N=C/c1ccccn1	0.14	-0.4
25	CCOCCn1cnc2sc(C(=O)Nc3nc(C)c(C(=O)OCC)s3)c(C)c2c1=O	0.54	.
26	COc1ccc(S(=O)(=O)NCc2ccc(C(=O)N3CC(C)CC(C)C3)cc2)cc1 (centres undefined)	0.64	-0.6
27	O=C(c1ccc(CS(=O)(=O)Cc2ccc(Cl)cc2)o1)N1CCCCCC1	-0.89	-0.5
28	CC(Oc1ccccc1)C(=O)OCc1nnc(-c2ccc(F)cc2)o1 (centres undefined)	.	-0.5
29	Cc1cc(NC(=O)CSc2nc(NCc3ccc(Cl)cc3)c3ccccc3n2)no1	0.42	.
30	CC1=C(C(=O)Nc2ccc(C)cc2)C2(CCN(C(C)C)CC2)OC1=O	-0.92	1.9
31	S=C(NCCN1CCOCC1)NNc1ccc2ccccc2c1	.	-2.8
32	COc1ccc2oc(=O)cc(CN(Cc3cccs3)C(C)C)c2c1	1.9	1.6
33	COc1ccc(/C=N/c2oc(-c3ccccc3)c(-c3ccccc3)c2C#N)c(OC)c1	0.54	.
34	O=C(Nc1cccnc1)c1cccc(S(=O)(=O)NCc2cccnc2)c1	.	0.35
35	Cc1c(C(=O)Nc2ccc3c(c2)OCCO3)sc2ncnc(N3CCN(c4ccccc4)CC3)c12	0.29	.
36	O=C(O)C(=Cc1ccc(-c2cccc(Cl)c2)o1)C(=O)O	.	-0.25
37	CCOc1ccccc1-n1c(SCc2ccccc2F)nc2[nH]ncc2c1=O	-0.19	.
38	COc1ccc(OCCCN2C(=O)NC(C)(C)C2=O)cc1	0.14	-2.4
39	CCN(Cc1ccccc1)C(=O)c1ccccc1-c1nc(-c2cccc(C)c2)no1	0.015	-0.65
40	CC(NC(=S)NC(=O)c1cccs1)C12CC3CC(CC(C3)C1)C2 (centres undefined)	0.035	-0.2
41	Cc1cc(C)c2oc(-c3cc(NC(=O)c4ccc(Br)o4)ccc3O)nc2c1	-0.12	2.5
42	COc1ccc(C(=O)C[n+]2cc(-c3ccc(OC)cc3)n3c2CCCCC3)cc1	-0.44	-0.25
43	COc1ccc(C2CC(c3ccc(Br)cc3)=NN2C(=O)c2cccnc2)cc1 (centres undefined)	-0.56	.
44	CCCCn1nnnc1COC(=O)/C(C#N)=C/c1ccc(N(C)C)cc1	.	2.1
45	CSc1nc2nc(-c3ccc4c(c3)CCC4)ccn2n1	6.9	-0.2
46	NC(=O)COC(=O)c1ccc(Oc2ccccc2)cc1	.	1.1
47	CNC(=O)c1ccc(Cn2c(SCc3ccc(C)cc3)nc3ccncc32)cc1	0.39	-0.75
48	Cc1ccccc1OCc1nnc(SCC(=O)N(Cc2ccccc2)C(C)(C)C)o1	.	0.95
49	N=C(N)c1ccc(C(F)(F)F)cc1	-0.46	2.7
50	COc1cc(N(C)C)c([N+](=O)[O-])cc1C(=O)NCCN1CCN(c2ccccc2)CC1	-0.95	.

# (further entries)
nr	SMILES	Ba CapD inh	AID504770
51	COc1ccc(CN2C(=O)c3cccnc3C2=O)cc1S(=O)(=O)NC1CC1	0.26	0.55
52	COc1ccc(-c2[nH]nc3c2C2(C(=O)Nc4ccccc42)C(C#N)=C(N)O3)cc1 (centres undefined)	0.71	.
53	CCOC(=O)c1[nH]c2ccc(OC)cc2c1NC(=O)CN(C)C	23	.
54	CCCCCCCCCCNS(=O)(=O)c1ccc2c(c1)C(=O)c1cc(S(=O)(=O)NCCCCCCCCCC)ccc1-2	-0.26	.
55	CC1CCCCN1C(=O)c1ccc2c(c1)C(=O)N(CCC1=CCCCC1)C2=O (centres undefined)	-0.57	-0.4
56	O=C(c1ccccc1)N1CCN(C(=O)c2ccc(OC(F)(F)F)cc2)CC1	.	-0.55
57	CCOc1ccc(C=Nc2ccccc2)cc1	0.16	-0.75
58	Oc1ccccc1-c1nc(NCCc2ccccc2)c2ccccc2n1	-0.48	.
59	COc1ccc(N/C=C(\C#N)c2ccc(Cl)cc2)cc1	-1.6	-0.1
60	O=c1c2ccccc2nc(/C=C/c2ccc([N+](=O)[O-])o2)n1-c1ccc(Br)cc1	-0.33	.

# A second format for part of the listing above:
# Value order – Ba CapD inh, AID504770
55	CC1CCCCN1C(=O)c1ccc2c(c1)C(=O)N(CCC1=CCCCC1)C2=O (centres undefined)
  -0.57, -0.4
53	CCOC(=O)c1[nH]c2ccc(OC)cc2c1NC(=O)CN(C)C
  23, .
54	CCCCCCCCCCNS(=O)(=O)c1ccc2c(c1)C(=O)c1cc(S(=O)(=O)NCCCCCCCCCC)ccc1-2
  -0.26, .
51	COc1ccc(CN2C(=O)c3cccnc3C2=O)cc1S(=O)(=O)NC1CC1
  0.26, 0.55
58	Oc1ccccc1-c1nc(NCCc2ccccc2)c2ccccc2n1
  -0.48, .
57	CCOc1ccc(C=Nc2ccccc2)cc1
  0.16, -0.75

# (listing goes on)
nr	SMILES	Ba CapD inh	AID504770
61	N#Cc1ccccc1OCC(=O)c1cccs1	.	1.7
62	Nc1ncnc2c1c1nc3ccccc3nc1n2CCc1ccccc1	.	-1
63	COc1cc(C2NC(=O)NC(C)=C2C(=O)Nc2cccc(Cl)c2)cc(OC)c1OC (centres undefined)	0.44	.
64	O=C(OCC(=O)c1cccs1)c1ccc(O)cc1	-0.75	-1.1
65	Cc1ccccc1OCc1nnc(SCC(=O)N(C)C)n1-c1ccccc1	.	2.5
66	CCC(Sc1nc(=O)cc(N)n1CCc1ccccc1)C(=O)Nc1nc(-c2ccccc2)cs1 (centres undefined)	0.2	0.35
67	CSc1ncc(-c2nnc(SCc3ccccc3)n2C)n1C	0.27	0.5
68	CSc1cccc(NC(=O)CCC(=O)O)c1	-0.06	1.2
69	NCCCC(N)CC(=O)NCC1NC(=O)C(CO)NC(=O)C(N)CNC(=O)C(C2CCN=C(N)N2)NC(=O)/C(=C/NC(N)=O)NC1=O (centres undefined)	-2.3	.
70	CC1(C)C=C(O)C(C2(O)C(=O)c3ccccc3C2=O)C(=O)C1 (centres undefined)	0.35	-1
71	COc1ccc(NC(=O)c2sc3nc4c(c(-c5ccco5)c3c2N)CCC4)cc1	-0.94	.
72	COc1ccc(OC)c(/C=C2/C(=O)NC(=O)N(c3ccc(Br)c(C)c3)C2=O)c1	-0.44	.
73	Cc1ccc2c3c(ccc2n1)NC1=C(C(=O)CCC1)C3c1ccccc1C (centres undefined)	20	-0.4
74	COc1ccc2nc(Nc3nc4ccccc4c(=O)[nH]3)nc(C)c2c1	0.21	.
75	O=C(CC1c2ccccc2CCN1S(=O)(=O)c1ccc(F)cc1)OCC(=O)N1CCCCC1 (centres undefined)	.	1.2
76	COCn1c(-c2ccc(OC)cc2)nc2ccccc21	3.4	-0.35
77	Cn1cnnc1Sc1ccc(Cl)cc1NC(=O)c1cc2ccccc2o1	.	-1.2
78	CCN(CC)C(=O)C1C(=O)N(C)C2(C)CC1c1ccccc1O2 (centres undefined)	.	-0.65
79	CCN1CCN(CC(=O)NC23CC4CC(CC(C4)C2)C3)CC1	.	-0.4
80	O=C(O)CCC(=O)Nc1sccc1C(=O)Nc1ccccc1	0.14	-0.7
81	Cc1cccc2sc(NC(=O)Cn3c(=O)oc4cc(S(=O)(=O)N5CCCC5)ccc43)nc12	0.24	0.05
82	COc1ccc2ccccc2c1CN1CCN(C(=O)OCc2ccc(C)c(C)c2)CC1	0.51	.
83	CC(=O)N1CCc2c(sc3c2c(=O)n(Cc2ccccc2)c(=O)n3Cc2cccc(C)c2)C1	1	-0.5
84	COC(=O)C1=C(C)Nc2ccccc2S1	.	1.2
85	CC(C)(C)c1ccc(CN2CCN(S(=O)(=O)c3cccc(F)c3)CC2)cc1	-0.31	.
86	Cc1nc2ccccc2c(=O)[nH]1	0.19	-0.7
87	O=C(/C=C/O)c1cccc(OCc2ccc(Cl)cc2Cl)c1	0.67	-0.75
88	C#CCOc1ccc(OC)cc1/C=C(/C#N)c1ccc(C#N)cc1	-0.63	0.15
89	O=C(Nc1ccc(N2CCOCC2)cc1)C12CC3CC(CC(C3)C1)C2	.	0.3
90	C=CCc1cccc2cc(C(=O)Nc3sc(C(=O)OCC)c(C)c3C(=O)OCC)c(=O)oc12	-0.56	.
91	CCOc1ccc(C2Nc3ccccc3NC3=C2C(=O)CC(c2ccc(OC)c(OC)c2)C3)cc1 (centres undefined)	-1.2	.
92	CN(C)c1ccc(CCOC(=O)NC2CCN(Cc3c(F)cccc3Cl)C2)cc1 (centres undefined)	2.9	.
93	CCC(C)NC(=O)c1ccc(Cl)cc1 (centres undefined)	0.51	-0.3
94	Cn1c(=O)c2c(n3c(SCC(N)=O)nnc13)-c1ccccc1CC21CCCCC1	-0.09	0.7
95	CCC1(C)OC(=O)N(C2CC(C)(C)NC(C)(C)C2)C1(C)O (centres undefined)	.	-1.1
96	C(=NC1CCCCCCCCCCC1)c1ccco1	0.39	-0.5
97	CCN(CC)CCOC(=O)c1ccc(NC(=O)CCCN2C(=O)/C(=C/c3ccc(OC)cc3)SC2=S)cc1	-0.96	.
98	NC(=O)c1nsc(C(=O)N(CC(=O)NCc2ccc3c(c2)OCO3)C2CCCCC2)c1N	.	-0.05
99	COc1ccc(NC(=O)C2OC3OC(C)(C)OC3C3OC(C)(C)OC23)cc1 (centres undefined)	-0.41	.
100	CC(C)(C)c1ccc(OCCOc2cccc(C=C3C(=O)NC(=S)NC3=O)c2)cc1	-0.055	.
101	CN1CCc2c(OCC(=O)N3CCCCCC3)cccc2C1=O	1.5	0.85
102	COc1cccc(C2C(C(=O)/C=C/c3ccco3)=C(O)C(=O)N2CCN2CCOCC2)c1 (centres undefined)	.	-1
103	CC(C)(C)OC(=O)C(C)(C)Sc1ccc(Cl)cc1	0.25	.
104	O=c1oc2ccccc2c(O)c1Sc1ccc(Cl)cc1	8.1	-0.25
105	CN(C(=O)NC(=O)Nc1ccc(Cl)cc1Cl)S(C)(=O)=O	.	-0.7
106	Nc1ncnc2c1ncn2C1CCC(CO)C(O)C1 (centres undefined)	.	-1.1
107	CC1CC(C)CN(c2ccc3nncn3n2)C1 (centres undefined)	-1.1	-0.75
108	O=C1CN(S(=O)(=O)c2ccc([N+](=O)[O-])cc2)CC(=O)N1	1.8	.
109	CN(C)C(Cc1ccccc1)C(=O)C(C)(C)C (centres undefined)	.	0.65
110	O=C(NN1C(=O)/C(=C\c2cccnc2)SC1=S)c1ccccc1	-1.4	1.9

# Retrieved by structure from the entries so far:
nr	SMILES	Ba CapD inh	AID504770
104	O=c1oc2ccccc2c(O)c1Sc1ccc(Cl)cc1	8.1	-0.25
103	CC(C)(C)OC(=O)C(C)(C)Sc1ccc(Cl)cc1	0.25	.
108	O=C1CN(S(=O)(=O)c2ccc([N+](=O)[O-])cc2)CC(=O)N1	1.8	.

# Remaining list, next part
nr	SMILES	Ba CapD inh	AID504770
111	CCc1ccc(S(=O)(=O)NCc2cn3ccsc3n2)cc1	.	0.3
112	Oc1ccc(CNc2ccc(F)cc2)c2cccnc12	-2.5	2.4
113	O=C(NCCc1c[nH]c2ccccc12)/C(=C/c1cccs1)NC(=O)c1ccccc1	-0.33	.
114	CCCOc1cccc(C(=O)Nc2ccc(Cc3ccncc3)cc2)c1	-0.49	-0.9
115	COc1cccc(OC)c1C(=O)OCC(=O)c1ccccc1	-1	1.9
116	O=C(O)c1cc(C23CC4CC(CC(C4)C2)C3)ccc1O	-0.83	-0.9
117	O=C1CCC(=O)N1CC(=O)N(c1ccccc1)c1ccccc1	0.61	-0.7
118	CCOC(=O)c1[nH]c(=O)[nH]c1COC(=O)c1cc2ccccc2o1	.	0.4
119	C=CCNC(=O)c1ccccc1NC(=O)CC	0.15	-0.2
120	CCC(C)NC(=O)c1ccccc1NC(=O)C1=CSCCO1 (centres undefined)	0.03	-0.05
121	COc1ccc(OCc2nc(N)nc(Nc3ccc(C)cc3)n2)cc1	-0.085	-0.6

# Rows are unselected; about 0.37% have a hit in one of these screens.
